Sfp PPTase inh = blocks B. subtilis Sfp PPTase activity; Q9F4F7; 310,000 compounds, 3.5% hits; Potency, µM, inactives show max response, negative = inhibition, usual class: inhibitors; Biochemical Sfp PPTase activity, qHTS; AID 1490; active means well fitted inhibition curve with a large enough effect; inconclusive means small, poorly fitted or top-dose-only effect, or another doubt; inactive means no such curve, though single readings can be large or run the other way;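 further: the enzyme is Sfp with the accession as filed and its product quenches rhodamine fluorescence; potency means the concentration at half of the fitted maximal effect; 0% = enzyme reaction without inhibitor and -100% = no enzyme wells; top concentration of the series not given in the record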
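After 15 min at room temperature with compound, 15 nM Sfp received 5 uM rhodamine-CoA plus 12.5 uM BHQ-2-ybbR (50 mM Hepes pH 7.6, 10 mM MgCl2). Rate came from the fluorescence difference over 30 min, ex 525/em 598 nm.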
Menin MLL FP FL = menin-MLL binding inhibition, fluorescein peptide | Fluorescence polarization, fluorescein-MLL peptide displacement from menin | FP activity change, % at 61.4 µM | 290,000 tested, under 10 active | AID 1766; inconclusive = falling polarisation curve, or a change in total fluorescence; inactive = total fluorescence flat and polarisation flat or rising; no compound was filed as active; the % refers to the polarisation; negative = inhibition;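 further: % of control where 0% means no effect; inhibitors lower the polarisation; unlabelled MLL peptide was the positive control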
Active calls of the source: *; ? = inconclusive; & = joins results of further samples; [ ] = another dose, or the depositor's remark. This is a subset; the hit share may differ from the screen's.

Sfp PPTase inh	Menin MLL FP FL	SMILES
4.2%	-1.2	CC[C@H](C)[C@H](NC(=O)[C@H](CCC(=O)O)NC(=O)[C@@H](N)CO)C(=O)N[C@@H](CCC(N)=O)C(=O)N[C@@H](CC(C)C)C(=O)N[C@@H](CCSC)C(=O)N[C@@H](Cc1cnc[nH]1)C(=O)N[C@@H](CC(N)=O)C(=O)N[C@@H](CC(C)C)C(=O)NCC(=O)N[C@@H](CCCCN)C(=O)N[C@@H](Cc1cnc[nH]1)C(=O)N[C@@H](CC(C)C)C(=O)N[C@@H](CC(N)=O)C(=O)N[C@@H](CO)C(=O)N[C@@H](CCSC)C(=O)N[C@@H](CCC(=O)O)C(=O)N[C@@H](CCCNC(=N)N)C(=O)N[C@H](C(=O)N[C@@H](CCC(=O)O)C(=O)N[C@@H](Cc1c[nH]c2ccccc12)C(=O)N[C@@H](CC(C)C)C(=O)N[C@@H](CCCNC(=N)N)C(=O)N[C@@H](CCCCN)C(=O)N[C@@H](CCCCN)C(=O)N[C@@H](CC(C)C)C(=O)N[C@@H](CCC(N)=O)C(=O)N[C@@H](CC(=O)O)C(=O)N[C@H](C(=O)N[C@@H](Cc1cnc[nH]1)C(=O)N[C@@H](CC(N)=O)C(=O)N[C@@H](Cc1ccccc1)C(=O)O)C(C)C)C(C)C
29.9%	-1.8	COCCNc1nc(C)nc2c1nc(-c1ccccc1)n2CCN1CCCCC1
0.5%	-2.3	Cc1cccc2cc(CN(CC3CCCO3)C(=O)c3ccco3)c3nnnn3c12 (stereo not given)
10.9%	3.0	O=C(O)CN1CCNCC1
-5.0%	6.7	CC[C@@]1(O)C(=O)COc2c1cc1n(c2=O)Cc2c-1nc1cccc(C(C)C)c1c2[Si](C)(C)C
-0.1%	0.2	CCCCC/C=C\C[C@@H](O)/C=C/C=C\CCC(=O)O
10.0%	2.1	COC(=O)c1nnc(C(=O)NCc2ccccc2)c2[nH]c3ccc(OC)cc3c12
44.7µM*	-5.7	CN=C1C=CC(=C(c2ccc(N(C)C)cc2)c2ccc(N(C)C)cc2)C=C1
2.5%	-0.3	O=C(NCCc1ccccc1)C(=O)NCC1CCNCC1
-2.0%	-0.3	CC(=O)C1=C(C)N(Cc2ccco2)C(=O)N[C@@H]1c1ccccc1
-4.5%	-4.2	COC(=O)N1[C@H]2CC[C@@]3(C)CC(=O)C[C@]1(C)C3c1ccccc12
?	2.5	CCOC(=O)c1cc(-c2ccc(Cl)cc2)nc2onc(C)c12
6.0%	3.9	Cc1sc2nc3n(c(=O)c2c1C)Cc1ccccc1-3
0.6%	-0.9	CCCC/C=C/[C@H](c1ccccc1)[C@H](CO)Cc1cnc2ccccc2c1
-2.5%	1.2	COc1ccc(C(=O)C2CCCN(Cc3c(C)[nH]c4ccccc34)C2)c(OC)c1 (stereo not given)
14.8%&-19.1%	0.5	C[N+](C)(CCCCCC[N+](C)(C)CCCN1C(=O)c2ccccc2C1=O)CCCN1C(=O)c2ccccc2C1=O
56.2µM*	?	Cc1cccc(N2CCN(C(=O)c3ccc4c(c3)NC(=O)C(CSCc3ccc(F)cc3)N4)CC2C)c1 (stereo not given)
23.0%	-14.5	CC(=O)N[C@@H](C(=O)O)C(C)(C)SN=O
?	?	C=CCN1C(=O)N/C(=C/c2ccc(N3CCOCC3)o2)C1=O
-5.2%	20.9	COc1cc2c(cc1CC=C(C)C)C(=O)C[C@@H](c1ccc(O)cc1)O2
8.3%	-1.0	CC(=O)c1ccc(N2CCN(C(=O)c3ccc4c(Cl)c5c(nc4c3)CCCC5)CC2)cc1
2.4%&-1.9%	-0.7	CCCCC/C=C\C\C=C/C=C/C=C/[C@@H](SCC(NC(C)=O)C(=O)O)[C@@H](O)CCCC(=O)O (stereo not given in full)
0.9%	?	COc1ccc(-c2oc3ccc(C)cc3c(=O)c2O)cc1OC
15.5%	-0.5[24.8 µM]	CO[C@H]1[C@@H](OC(N)=O)[C@H](O)[C@@H](Oc2ccc3c(O)c(NC(=O)c4ccc(O)c(CC=C(C)C)c4)c(=O)oc3c2C)OC1(C)C
8.4%	2.1	COc1cc(C2NCCc3c2[nH]c2ccccc32)ccc1OC(C)C (stereo not given)
8.4%	14.4	COc1cc([N+](=O)[O-])cc(/C=N/NC(=O)CC#N)c1O
-12.2%	0.2[11.7 µM]	C[C@H](NC(=O)N1CCc2nc(-c3ccccc3)c3c(c2C1)CO[C@@H](C)C3)c1ccccc1
?	2.9	Nc1ncc(O)c(N)n1
14.4%	?	COc1cccc(-c2cc(=O)c3cc(O)ccc3o2)c1
16.1%	4.3[24.8 µM]	C[C@H]1CC[C@]2(OC1)O[C@@H]1C[C@@H]3[C@@H]4CC[C@H]5C[C@@H](O)CC[C@]5(C)[C@@H]4CC(=O)[C@@]3(C)[C@H]1[C@@H]2C
15.5%	-1.2[24.8 µM]	CC[C@]1([C@H]2O[C@@H]([C@@H]3O[C@](O)(CO)[C@@H](C)C[C@H]3C)C[C@H]2C)CC[C@@H]([C@]2(C)CC[C@@]3(C[C@@H](O)[C@@H](C)[C@@H]([C@H](C)[C@H](OC)[C@H](C)C(=O)O)O3)O2)O1
4.6%	-2.0	COc1ccc(C2C=C3CNS(=O)(=O)C3CC2OC(=O)c2ccc(C(F)(F)F)cc2)cc1 (stereo not given)
9.3%	-1.4	CCOC(=O)/C(C(=O)Nc1ccc(Cl)cc1Cl)=C1/NC(C)(C)Cc2ccccc21
24.5%	-2.0[11.7 µM]	COC(=O)[C@H](CCSC)NC(=O)C/C=C\[C@@H](C)CO
8.0%	-6.6	CCc1nnc(NS(=O)(=O)c2ccc(NS(=O)(=O)c3ccc(NC(C)=O)cc3)cc2)s1
1.5%	2.8	CCOc1ccccc1Nc1nc(-c2sc(NC(=O)c3ccccc3)nc2C)cs1
?	0.6	CCCC1CC(=O)OC1(C)C(=O)CSc1n[nH]c(-c2ccccc2)n1 (stereo not given)
-4.5%	-4.2[94.6 µM]	COc1ccc2c(c1)OC(=O)CC2c1ccc2c(c1)OCO2 (stereo not given)
16.1%	-1.9[24.8 µM]	CCN(CC)CCOC(=O)[C@@H](Cc1cccc2ccccc12)C[C@@H]1CCCO1
21.1%	4.2	CC(C)[C@@H]1NC(=O)c2cc([N+](=O)[O-])cc(I)c2NCCCC[C@@H](C(=O)NC(CC(=O)O)C(N)=O)NC(=O)[C@H](CO)NC1=O (stereo not given in full)
16.0%	0.7	COC(=O)/C=C1/S/C(=N/N=C/c2ccc(N(C)C)cc2)NC1=O
22.3%	-0.3	O=c1c2ncn([C@@H]3O[C@@H]4COP(=O)(O)O[C@H]4[C@H]3O)c2nc2[nH]c(-c3ccccc3)cn12
-0.2%	-4.4	CN[C@@H]1[C@H](O[C@@H]2O[C@H](C)[C@@](O)(CO)[C@H]2O[C@H]2[C@H](O)[C@H](O)[C@H](N=C(N)N)[C@@H](O)[C@@H]2N=C(N)N)O[C@@H](CO)[C@H](O)[C@H]1O
5.0%	1.4	COC(=O)[C@@]1(Cc2ccccc2)C=C[C@@H](C)N1C(=O)c1ccccc1
8.9%	5.2	Cc1sc2nc(-c3ccncc3)[nH]c(=O)c2c1-c1ccccc1
17.9%	2.5	CC(=O)N[C@@H](Cc1ccc(O)cc1)C(=O)O
10.6%	2.3	COC(=O)c1ccc(C(/C=C/[C@@H](C)C(=O)NCCN2CCCC2)NC(=O)OCc2ccccc2)cc1 (stereo not given in full)
-2.7%	0.1	Cc1ccc(OCc2ccc(Br)cc2)c([N+](=O)[O-])n1
?	?	Cc1ccc2c(c1)C1C=CCC1C(C(=O)O)N2 (stereo not given)
11.8%	1.4	c1cncc(-c2nc(Oc3ccc(-c4nnco4)cc3)c3c4c(sc3n2)CCCC4)c1
-4.0%	0.0	Cc1ccc(/C=C2/C(=O)C3(C)CCC2C3(C)C)cc1 (stereo not given)
-29.3%	?	CCc1ccc(/C=C2/SC(=S)N(CCC(=O)Nc3ccc(C(=O)O)cc3)C2=O)cc1
12.1%	-0.6	CC(=O)Nc1cccc(Cn2cccn2)c1
12.1%	-2.2	CC(C)C[C@H](NC(=O)c1ccc(NCc2cnc[nH]2)cc1-c1cccc2ccccc12)C(=O)O
0.2%	0.3[11.7 µM]	CC(=O)OC[C@@H]1O[C@@H](O/N=C2/C[C@@H](O)[C@@H](O)[C@@H]3[C@@H]4C(=O)N(Cc5ccccc5)C(=O)[C@H]4CC[C@@H]23)[C@H](OC(C)=O)[C@H](OC(C)=O)[C@@H]1OC(C)=O
6.2%	1.8[24.8 µM]	CC1(C)S[C@@H]2[C@H](NC(=O)[C@@H](NC(=O)N3CCNC3=O)c3ccccc3)C(=O)N2[C@H]1C(=O)O
-8.2%	0.1[94.6 µM]	COc1ccc(NC2C[C@H]3CCCC(=O)N4CC[C@@H](C2)[C@@H]34)cc1 (stereo not given in full)
-16.0%	1.4	CCOc1ccccc1-c1nnc2n1N=C(c1cc(OC)ccc1OC)CS2
11.8%	-1.0	Cc1nc(NC2CCCCC2)c2nc(-c3ccccc3)n(CC3CCN(C)CC3)c2n1
-1.0%	17.0[11.7 µM]	COc1ccc([C@]23Cc4cc(C#N)ccc4C(O2)C2=C(CC4(CCCCC4)OC2=O)O3)cc1

Rewritten field by field: entries from further up
CCCC1CC(=O)OC1(C)C(=O)CSc1n[nH]c(-c2ccccc2)n1 (stereo not given)
  Sfp PPTase inh: ?; Menin MLL FP FL: 0.6
COC(=O)[C@@]1(Cc2ccccc2)C=C[C@@H](C)N1C(=O)c1ccccc1
  Sfp PPTase inh: 5.0%; Menin MLL FP FL: 1.4
COc1ccc(NC2C[C@H]3CCCC(=O)N4CC[C@@H](C2)[C@@H]34)cc1 (stereo not given in full)
  Sfp PPTase inh: -8.2%; Menin MLL FP FL: 0.1[94.6 µM]
CCOC(=O)/C(C(=O)Nc1ccc(Cl)cc1Cl)=C1/NC(C)(C)Cc2ccccc21
  Sfp PPTase inh: 9.3%; Menin MLL FP FL: -1.4

New compounds follow:
Sfp PPTase inh	Menin MLL FP FL	SMILES
15.7%	1.7	CCC/C=C(\CCC)C(NC(=O)c1cccs1)c1ccc(C(F)(F)F)cc1 (stereo not given)
3.9%	13.2	CCCC/C=C/C(NC(=O)c1ccco1)c1ccccc1 (stereo not given)
-8.0%	3.4	Cc1ccc(NC(=O)N(Cc2ccco2)Cc2cc3cc(C)cc(C)c3nc2Cl)cc1
3.0%&16.2%	-1.7&-5.1	O=C(O)CCC/C=C\C[C@@H]1[C@@H](/C=C/[C@@H](O)COc2cccc(C(F)(F)F)c2)[C@H](O)C[C@@H]1O
46.0%[activator]	2.6	CCC/C=C(\CCC)C(NS(=O)(=O)c1ccc(C(F)(F)F)cc1)c1ccc(C(=O)OC)cc1 (stereo not given)
-1.7%	?	CC1CCC2[C@](C)(CO)C(O)CC[C@]2(C)C12CCC(CO)(CCO)O2 (stereo not given in full)
-14.9%	12.0	O=C(Cn1nc(-c2ccc3c(c2)OCCO3)ccc1=O)Nc1cccc(NC(=O)c2ccccn2)c1
-24.2%	-0.9	CC(C)C[C@@H](CC(=O)N[C@@H](CCC(=O)O)CC(=O)O)NC(=O)[C@@H]1CCCC[C@H]1NC(=O)C[C@@H](NC(=O)C[C@H](Cc1ccccc1)NC(=O)[C@@H]1CNCC[C@H]1N)C(C)C
-1.8%	9.2[11.7 µM]	CCCCc1cc2c(cn1)=C(OC(=O)c1cccs1)C(C)(OC(=O)CC)C(=O)C=2 (stereo not given)
?	3.4	Cc1nc(N2CCCCC2)sc1C(=O)c1ccc(Cl)c([N+](=O)[O-])c1
?	0.1[11.7 µM]	CC(C)CO/N=C1/C[C@@H](O)[C@@H](O)[C@@H]2[C@@H]3C(=O)N([C@@H](C)c4ccccc4)C(=O)[C@H]3CC[C@@H]12
-0.4%	0.2	CNCCNS(=O)(=O)c1cccc2cnccc12
-28.8%	4.0	O=C(c1ccco1)N1CCN(c2ncnc3c2[nH]c2ccc(Cl)cc23)CC1
8.1%	-7.4	c1ccc2c(c1)OCCOCCOCCOCCO2
-15.3%	3.1	Cc1ccn2cc(-c3ccc(S(=O)(=O)N4CCOCC4)cc3)nc2c1
-12.3%	-0.4	Cc1ccc(SCC(c2ccccc2)N2CCN(CC(C)C)CCC2=O)cc1 (stereo not given)
15.5%	0.3	NC(=O)C1O[C@@H](O)[C@H](O)[C@@H](O)[C@H]1O (stereo not given in full)
8.5%	-0.4	C=C(C(=O)O)[C@@H]1CC[C@@]2(C)CCC[C@](C)(O)[C@@H]2C1
11.8%	?	CC1CN(S(=O)(=O)c2ccc(C(=O)Nc3sc4c(c3C(N)=O)CCN(C)C4)cc2)CC(C)O1 (stereo not given)
6.0%	1.2	Cc1noc(C)c1-c1ccc2ncnc(NCc3ccccc3C(F)(F)F)c2c1
2.7%	3.8	O=S(=O)(Oc1ccc(Cl)cc1)c1ccccc1
7.1%	0.9	O=C1Nc2ccccc2S/C1=C\C(=O)N1CCCC1
-2.5%	1.2	COc1ccc(C2/C=C\CN(Cc3ccccc3)C(C)C(=O)N2Cc2ccc(F)cc2)cc1 (stereo not given)
